Bst PK mod: Pyruvate Kinase; partly purified Bacillus stearothermophilus pyruvate kinase, luminescence ATP production; ribose 5-phosphate activator present at AC10; Potency, µM; 1.2% of 51,000 active; AID 361, 2006; in the data active means potency below about 11 µM; inconclusive means mostly about 12 µM to 25 µM; inactive means weaker than that;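 the screen sought inhibitors and activators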;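 further: potency means the concentration at half of the fitted maximal effect; scaled between full activation by ribose 5 phosphate and full inhibition by luteolin; about four in five hits inhibit and the cells do not say which; series up to 57 µM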
YjeE inh: qHTS Assay for Inhibitors of YjeE | tRNA threonylcarbamoyladenosine biosynthesis protein TsaE (Escherichia coli (strain … | purified YjeE, fluorescence polarisation of a bound ADP probe | Potency, µM | 0.05% of 71,000 active; active = well fitted falling curve; inconclusive = weaker or top-dose-only fall, or a rising curve; inactive = flat or poorly fitted curve;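 further: top concentration of the series not given in the record; excess ADP was the control for the full effect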
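Purified YjeE (10 uM) with BODIPY Texas Red-labeled ADP probe (2 uM); compounds pin-transferred, 15 min at room temperature. Binding inhibition read as decreased fluorescence polarization; ADP titration as control.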
* hit, by the source's call; i = inactive; · = no result given. The list is partial, so the mix of outcomes need not match the whole.

The opening two records, ahead of the listing:
Compound,Bst PK mod,YjeE inh
O=C(CSCc1ccccc1)N1CCN(Cc2ccc3c(c2)OCO3)CC1,>57,i
COc1ccc(Cn2nnnc2C(C(C)C)N2CCN(c3ccccc3OC)CC2)cc1 (centres undefined),>57,i

The whole of this part, from the start:
Compound,Bst PK mod,YjeE inh
O=C(CSCc1ccccc1)N1CCN(Cc2ccc3c(c2)OCO3)CC1,>57,i
COc1ccc(Cn2nnnc2C(C(C)C)N2CCN(c3ccccc3OC)CC2)cc1 (centres undefined),>57,i
Cc1cc(N)c(-n2cc3c(=O)n(C)c(=O)n(C)c3c2)cc1C,>11,i
COCc1cc(C)nc(Nc2cc(C)ccc2C)c1C#N,·,i
CCOC(=O)c1cnc(N2CCOCC2)[nH]c1=O,>57,i
COc1cccc(N2CCN(CC(=O)Nc3nnc(-c4ccccc4)s3)CC2)c1,>57,i
COc1ccc(N(CC(O)Cn2nnc3ccccc32)S(=O)(=O)c2ccc(C)cc2)cc1 (centres undefined),5.7*,i
Cc1cc2nsnc2c(S(=O)(=O)NCC(=O)O)c1C,·,i
CCCc1cc(=O)[nH]c(SCC(=O)NC(=O)c2ccccc2)n1,>57,i
Cn1cccc1C(=O)N1CCC2(CC1)CCN(c1cccc(-c3ccccc3)c1)CC2,·,i
COc1cccc(-c2nnc3sc(-c4ccco4)nn23)c1,>26,·
CCOc1ccc(OCC)c(NC(=O)C2CCCN2S(=O)(=O)c2cccc3cccnc23)c1 (centres undefined),·,i
CCOc1ccccc1-n1nnnc1SCC(=O)Nc1cc(C)on1,·,i
CC(C)(C)C1=C(C#N)C(c2ccc3c(c2)OCO3)C(C#N)=C(N)O1 (centres undefined),>57,i
CCn1c2ccccc2c2nnc(SCc3ccc(C(=O)OC)o3)nc21,>57,i
CN=C1SC(CC(=O)Nc2ccc(N3CCOCC3)cc2)C(=O)N1C (centres undefined),>57,i
CC(NC(=O)c1cn(C)c2ccc(S(=O)(=O)N3CCCC3)cc2c1=O)c1ccc2c(c1)OCCO2 (centres undefined),>57,i
COc1cc(NC(=O)c2ccc(COCC(F)(F)F)o2)cc(OC)c1OC,>57,i
Cc1nnc(NC2=NCCC2)o1,>57,i
CCCc1nnc(SCC(=O)Nc2ccc(OCC)cc2)n1N,>57,i
CCOC(=O)C1CCN(CC(=O)Nc2c(C(=O)OC)[nH]c3ccc(Cl)cc23)CC1,>57,i
COc1cccc(-c2ccc(=O)n(CC(=O)NCCN3CCOCC3)n2)c1,>57,i
CC(=O)N1C(C(=O)O)CSC1c1ccc(C)cc1 (centres undefined),·,i
Cc1c(C(=O)N2CCN(C)CC2)oc2ccc(S(=O)(=O)N3CCOCC3)cc12,>57,i
COC(=O)c1c(C)[nH]c(C(=O)OCc2ccc(F)cc2)c1C,>26,·
O=C(NCCCN1CCCC1=O)c1cccc(N2CCCC2=O)c1,>57,i
COc1ccccc1N=C(C)C1=C(O)CSC1=O,·,i
c1cncc(-c2cc(-n3ccnc3)ncn2)c1,·,i
O=C(O)C1C2C=CC(C2)C1C(=O)NCCc1ccccc1 (centres undefined),>57,i
Cc1c(=O)n(OCc2ccccc2)c2ccccc2[n+]1[O-],·,i
COc1ccc(-c2nnc(SCC(=O)Nc3ccc(Cl)cc3)n2C)cc1,>57,i
COC(=O)c1c(NC(=O)c2ccc(S(=O)(=O)N3CCOCC3)cc2)sc2c1CCN(C)C2,>57,i
CCOC(=O)C1=C(C)NC(=O)C(C#N)C1c1ccncc1 (centres undefined),>57,i
COC(=O)c1ccccc1N1C(=O)C2C(C1=O)C1C=CC2C12CC2 (centres undefined),>57,i
CCCS(=O)(=O)N1CCCC(C(=O)NCc2ccc3c(c2)OCO3)C1 (centres undefined),>57,i
COCCNC(=O)Cn1nc(C(F)(F)F)c(Cl)c1C,>57,i
COC(=O)C(NC(C)=O)(Nc1ccccc1)C(=O)OC,>26,·
COc1ccccc1NC(=O)c1cc2ccc(O)cc2o/c1=N\O,·,i
CCCCC(C=O)NC(=O)C(CC(C)C)NC(=O)OCc1ccccc1 (centres undefined),·,i
Cc1ccccc1S(=O)(=O)Cc1ccc(C(=O)NCCCOC(C)C)o1,>57,i
CC(=O)c1c(N2CCOCC2)nc(=S)n(-c2cc(C)ccc2C)c1C,>57,i
C=CCN(CC=C)C(=O)Nc1cc(Cl)ccc1OC,>57,i
O=C(NC1CCCCC1)C(c1ccco1)N(Cc1cccnc1)C(=O)C1COc2ccccc2O1 (centres undefined),>57,i
COc1cc2c(cc1NC(=O)COC(=O)Cn1cnc3ccccc31)oc1ccccc12,·,i
COC(=O)c1ccccc1NC(=O)C1CC(=O)N(C2CCCCC2)C1 (centres undefined),>57,i
O=C1CC(c2ccncc2)c2cc3c(cc2N1)OCCO3 (centres undefined),>57,i
O=c1cc(-c2ccccc2)nc(N2CCN(Cc3ccc4c(c3)OCO4)CC2)[nH]1,>57,i
Cc1ccccc1NC(=O)C1CCN(c2cnccn2)CC1,>57,i
CCCn1c(-c2ccc(F)cc2)nc2c(NC3CCN(Cc4ccccc4)CC3)nc(C)nc21,·,i
O=C1C(=O)N(CCO)C(c2ccccc2)/C1=C(\O)c1ccccc1 (centres undefined),·,i
C=CCC(NCc1ccccc1)c1ccco1 (centres undefined),>57,i
CCCCC(CC)Cn1c(N)c(C#N)c2nc3ccccc3nc21 (centres undefined),>57,i
CCOC(=O)N1CCC(Nc2ncnc3c2cnn3-c2ccc(C)cc2C)CC1,·,i
CC(C)(C)c1c2c(c(C(C)(C)C)c3c1OCN(Cc1ccccc1)C3)OCN(Cc1ccccc1)C2,·,i
COc1ccc(-n2c(=O)cnc3cnc(N4CCOCC4)nc32)cc1,·,i
CCOC(=O)CC1(CC(=O)OCC)NC(=O)c2c(C)sc(C(=O)OCC)c2N1,>57,i
Nc1nc2c(ncn2[C@H]2CC[C@@H](CO)O2)c(=O)n1C(=O)c1ccccc1,·,i
COC(=O)CN(n1cnnc1)S(=O)(=O)c1ccccc1,·,i
Cc1c(-c2ccccc2)sc(N)c1C(=O)N1CCOCC1,>57,i
CCOc1ccc(-c2nnc3ccc(SCC(=O)NCc4ccco4)nn23)cc1,>57,i

(listing goes on)
Compound,Bst PK mod,YjeE inh
Fc1ccc(C(c2nnnn2C2CCCC2)N2CCN(Cc3ccncc3)CC2)cc1 (centres undefined),>57,i
Nc1ccccc1N=Nc1c(S(=O)(=O)O)cc2cc(S(=O)(=O)O)cc(O)c2c1O,·,i
CC(C)CC1C(C#N)=C(N)SC(N)=C1C#N,·,i
CCSc1nnc(-c2ccc(Cl)cc2Cl)o1,·,i
COC(=O)[C@@]1(Cc2ccc(F)cc2)[C@H]2c3cc(C(=O)N(C)C)n(Cc4nc5ccccc5[nH]4)c3C[C@H]2CN1C(=O)c1ccccc1,·,i
CCOC(=O)N1CCN(C(=O)c2cc3c(ccc4ccccc43)oc2=O)CC1,>57,i
CCOCCCNC(=O)c1ccc(OC)cc1,>57,i
O=C(O)c1ccc(CSc2nnc(-c3ccncc3)n2CC2CCCO2)cc1 (centres undefined),>57,i
Cc1ccc(Oc2nc3ccccc3n3c(C)nnc23)cc1,>57,i
COc1cc(C(=O)NCc2nnc(SCC(=O)N3CCC(C)CC3)o2)cc(OC)c1OC,>57,i
CCC(C)(C)NC(=O)C(c1ccc(F)cc1)N(Cc1ccco1)C(=O)c1cnccn1 (centres undefined),>57,i
O=c1cnc2cncnc2n1Cc1ccc(F)cc1,·,i
O=C(COC(=O)C1CCCN1C(=O)c1cccs1)Nc1ccc2c(c1)OCO2 (centres undefined),>57,i
O=C(CSC1=NCCS1)Nc1ccccc1F,>57,i
CCOC(=O)N1CCN(C/C(C)=C/c2ccccc2)CC1,·,i
Nc1nnnn1/N=C/c1ccco1,>26,·
O=C(O)CCC(=O)N1CCc2cc(S(=O)(=O)N3CCC(Cc4ccccc4)CC3)ccc21,·,i
Cc1ccc(NC(=O)CSc2nnc(CCCCCNC(=O)OC(C)(C)C)o2)c(C)c1,>57,i
CCc1c(C)c2cc(Cl)c(O)c(CN(CC)CC)c2oc1=O,>57,i
O=C(NC1CC1)c1ccc(S(=O)(=O)NCC2CCCCC2)cc1,>57,i
O=C1CSC(c2ccco2)N1 (centres undefined),·,i
NC(=O)Nc1nc2ccccc2[nH]1,·,i
CCCCN(CCCNC(=O)CN1C(=O)COc2ccccc21)c1ccccc1,>57,i
CCc1c(C)[nH]n(CCC#N)c1=O,·,i
Cc1ccc(N2CC(C(=O)NC3=NCCS3)CC2=O)cc1C (centres undefined),>57,i
CC(=O)Oc1cc(OC(C)=O)c2c(=O)cc(-c3ccc(OC(C)=O)c(OC(C)=O)c3)oc2c1,·,i
COc1ccc(CCNC(=O)CCn2c(=O)oc3ccccc32)cc1,·,i
CC1CCC(NC(=O)CN2CCCN(Cc3ccc(F)cc3Cl)C2=O)CC1 (centres undefined),>57,i
CCOC(=O)C1CCN(C(C(=O)NC2CCCCC2)c2ccc(OC)cc2)CC1 (centres undefined),>57,i
CSc1nnc2c(n1)OC(c1ccc(C(=O)O)cc1)N(C(C)=O)c1ccccc1-2 (centres undefined),·,i
COC(=O)CSc1nnc(-c2ccncc2)o1,·,i
COC(=O)C1=C(C)N(CCc2ccccc2)C(=O)C1,>57,i
Cc1cccc(-n2c(=O)[nH]c3c(C(N)=O)nc(C(C)C)nc32)c1,>57,i
Clc1nc2sccn2c1/C=N/n1cnc2ccccc21,·,i
O=C1CN(CC(=O)N2CCCCC2)c2ccccc2O1,>57,i
CCC(Sc1nc(C)cc(=O)[nH]1)C(=O)Nc1sc2c(c1C#N)CCCC2 (centres undefined),·,i
O=C(CSc1nnc(Cc2ccccc2)n1-c1ccc(Cl)cc1)N1CCOCC1,>57,i
COc1ccc(C(=O)Nc2ccc(S(=O)(=O)NCc3ccco3)cc2)cc1OC,>57,i
COc1cccc(-c2cc(NCCc3c[nH]c4ccc(OC)cc34)ncn2)c1,·,i
CSc1nc(C)cc(SCCO)n1,·,i
O=C(O)CCNC(=O)c1ccccc1,>26,·
C=C(C)C(=O)OC,·,i
COc1ccc(OC)c(CNC(=O)C2CCN(S(=O)(=O)N3CCCC3)CC2)c1,>57,i
CC(=O)c1cccc(NC(=O)NCCS(C)=O)c1 (centres undefined),>57,i
O=C(NC1(C(F)(F)F)NC(=O)N(Cc2cccnc2)C1=O)c1cccs1 (centres undefined),>57,i
CC(=O)Nc1ccc(OCC(O)CN2CCN(Cc3ccccc3)CC2)cc1 (centres undefined),>57,i
COc1ccc(-c2nnc(-c3ccc(N(C)C)cc3)o2)cc1,>11,i
Cc1ccc(C(=O)Nc2ccc3c(c2)ncn3C)cc1,·,i
COc1ccc2nc(SCC(=O)Nc3ccc4c(c3)OCCO4)[nH]c2c1,·,i
COC(=O)c1sccc1NC(=O)c1ccncc1,·,i
Cc1ccc(-c2cc(C(=O)N3CCCC3)no2)cc1,7.9*,i
Cc1ccc2cc(CN(Cc3cccs3)Cc3nnnn3CC3CCCO3)c(=O)[nH]c2c1 (centres undefined),>57,i
O=C(c1ccc(CN2CCOCC2)cc1)N1CCN(Cc2ccccc2)CC1,·,i
COc1ccc2c(c1OC)C(=O)N1c3ccccc3SC21 (centres undefined),i,·
O=C(CSc1n[nH]c(-c2ccc(S(=O)(=O)NC3CCCCC3)cc2)n1)N1CCCC1,>57,i
Nc1nc(N)nc(-c2ccccn2)n1,>57,i
COC(=O)CCN1CCC(C(N)=O)CC1,>57,i
COc1ccccc1CNC(=O)c1c(O)c2cc(OC)c(OC)cc2[nH]c1=O,>57,i
O=C1NC(=O)C2(CCC(C(=O)O)C2)N1 (centres undefined),>57,i
CCN1CCN(C(=O)c2cc3c(=O)n(C)c4ccccc4c3n2C)CC1,·,i

Entries of single compounds, looked up by structure. Values in the order: Bst PK mod, YjeE inh
Profile of Nc1nc(N)nc(-c2ccccn2)n1 : >57, i
Profile of COc1ccccc1CNC(=O)c1c(O)c2cc(OC)c(OC)cc2[nH]c1=O : >57, i
Profile of Cc1ccc(-c2cc(C(=O)N3CCCC3)no2)cc1 : 7.9*, i

Additional results
Compound,Bst PK mod,YjeE inh
CCOc1ccc(-c2nnc(N)o2)cc1,·,i
N#Cc1cn(CC(=O)NCCc2c[nH]c3ccccc23)c2ccccc12,>57,i
CCCCc1c(C)nn(-c2nnc3c4ccccc4n(C)c3n2)c1C,i,·
CCn1c2ccccc2c2nnc(SCc3ccccc3)nc21,·,i
Cc1cc(C(C)(C)C)cc(S(=O)(=O)NCC(=O)O)c1C,>57,i
COC(=O)CSc1nc2c(c(=O)[nH]c(=O)n2C)n1CCC(C)C,>57,i
CC1CCN(S(=O)(=O)c2ccc(S(=O)(=O)NCC3COCCO3)cc2)CC1 (centres undefined),>57,i
Nc1nnc(CCC2CCCCC2)s1,>57,i
COc1cccc(N(CC(=O)NC2CCCC2)C(=O)Cn2nnc(-c3ccc(C)cc3)n2)c1,>57,i
CCOC(=O)c1[nH]c(CSc2nnc(-c3ccc(OC)cc3)o2)c(C(=O)OCC)c1C,>57,i

Screening results from PubChem.
